Screening results from PubChem BioAssay.
Rango complex inh: inhibitors of Rango-importin beta complex formation. Q14974. Rango CFP/YFP FRET sensor + importin beta, 45 min. Potency, µM (series often up to 92.2 µM), for the others: top-dose inhibition of complex formation. 340,000 compounds, 0.031% hits; active = rising FRET ratio curve, often small or poorly fitted; inconclusive = mostly compound fluorescence or quenching in the first reads; inactive = flat curves in all reads;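 further: potency means the concentration at half of the fitted maximal effect; 0% = DMSO wells and 100% = buffer wells lacking importin beta; nearly all actives have a fitted effect of over 15% in size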
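FRET biosensor Rango (snurportin 1 IBB between N-terminal EYFP and C-terminal Cerulean), 50 nM in PBS/1 mM DTT/0.02% Tween-20/0.1% BSA, preincubated 5 min RT with compound; 0.125 microM importin beta added, 45 min RT, CFP/YFP FRET ratio read.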
miR-21 reporter: miR-21 reporter, rising signal; AID 2288; Potency, µM (doses to about 38.3 µM), without a hit: top-dose reporter change, positive = more light; 340,000 tested, under 10 active; HeLa miR-21 FLuc reporter, luciferase, 48 h; active = well fitted rising curve with a large enough effect; inconclusive = small, poorly fitted or top-dose-only effect; inactive = no such curve, though single readings can be large or run the other way;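 further: % of control where 0% means no effect; miR-21 action dims this reporter so a rising signal means less miR-21 action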
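Compounds were titrated across several concentrations (up to approximately 40 uM) and incubated 48 hours with HeLa miR-21-FLuc reporter cells (miR-21 target sequence downstream of FLuc, endogenous miR-21). Readout was firefly luciferase luminescence after lytic detection reagent.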
Rango release inh: prevents RanGTP from dissociating the Rango-importin beta complex | O95149+P62826 | Biochemical FRET Rango-importin beta, RanGTP-induced dissociation | Potency, µM (doses to about 46.1 µM), for the others: top-dose activity change, negative = inhibition | 340,000 compounds, 0.071% hits; active means falling FRET ratio curve, often poorly fitted, with flat reads before Ran was added; inconclusive means other falling curves, or compound fluorescence or quenching; inactive means flat or rising ratio curve;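 further: potency means the concentration at half of the fitted maximal effect; % of control where 0% means no effect; nearly all actives have a fitted effect of over 45% in size; -100% = wells without RanGTP and RCC1; the record marks most hits as doubtful in a second field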
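Compounds preincubate 5 min with complex of recombinant Rango and importin beta in PBS with 1 mM DTT. Ran (0.6 uM) loaded with 2 mM GTP plus 0.2 uM RCC1 starts dissociation; FRET is recorded 45 min later.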
GLA inh pH 4.5: blocks human alpha-galactosidase A at pH 4.5 | 230,000 tested, under 10 active | P06280 | AID 1467 | purified enzyme, 4-MU-alpha-Gal fluorescence, pH 4.5 | activity change, negative = inhibition, % at 105 µM; inconclusive = small, poorly fitted or top-dose-only inhibition, or a rising curve; inactive = flat fitted curve, though single readings scatter; no compound was filed as active;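 further: 0% = full activity with enzyme and -100% = basal without enzyme; dose as in the result columns while the protocol names 77 µM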
Target sequence (P06280 whole entry, looked up): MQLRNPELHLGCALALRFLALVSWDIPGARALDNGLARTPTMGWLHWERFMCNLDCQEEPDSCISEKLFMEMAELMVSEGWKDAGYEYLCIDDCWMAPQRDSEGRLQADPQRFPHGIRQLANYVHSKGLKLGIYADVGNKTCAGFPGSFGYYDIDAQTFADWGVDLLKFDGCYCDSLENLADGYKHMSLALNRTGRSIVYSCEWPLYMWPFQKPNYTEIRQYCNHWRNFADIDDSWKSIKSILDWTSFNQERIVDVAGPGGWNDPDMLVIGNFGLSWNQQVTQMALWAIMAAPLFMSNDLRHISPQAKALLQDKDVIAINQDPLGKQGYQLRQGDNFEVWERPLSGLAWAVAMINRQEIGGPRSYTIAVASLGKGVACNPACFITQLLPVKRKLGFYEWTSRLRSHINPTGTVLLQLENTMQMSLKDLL
Numbers without * were called inactive; ? = inconclusive; nt = no result given; & = joins results of further samples.

no.	molecule	Rango complex inh	miR-21 reporter
1	CCC(=O)c1c(NC)cc(C)oc1=O	0.6%	4%
2	COc1ccc(/C=C2\CN(Cc3ccccc3)C/C(=C\c3ccc(OC)c(O)c3)C2=O)cc1O	?	?
3	O=C1NC(=O)C2(CCCC2c2ccccc2)N1 (stereo unspecified)	1.3%	nt
4	CCOC(=O)N1CCN(Cc2nc(N)nc(Nc3ccc(C)cc3C)n2)CC1	-0.8%	-2%
5	CC(C)CCNC(=O)C1CCCCN1S(=O)(=O)c1ccc(F)cc1 (stereo unspecified)	6.8%	-1%
6	CC(C)(C)NC(=O)/C(=C/c1ccco1)c1ccccc1	-3.0%	-5%
7	C=CC[C@@H](CC(=O)N[C@H](CO)Cc1ccccc1)C(=O)N[C@@H](COC(=O)[C@@H](CC=C)CC(=O)OC(C)(C)C)Cc1ccccc1	-2.8%	nt
8	CCN(CC(=O)NCc1cccs1)C(=O)/C=C/c1ccc(OC)cc1OC	1.7%	nt
9	COc1ccccc1/C=N/Nc1cc(C)nc2ccc(C)cc12	-1.5%	-28%
10	Cc1ccc(O)c(Sc2cc(C)ccc2O)c1	-0.2%	-1%

no.	GLA inh pH 4.5	Rango release inh
1	0	28%
2	nt	-7%
3	nt	-12%
4	-3	3%
5	-3	-6%
6	13	15%
7	nt	-28%
8	nt	2%
9	nt	-1%
10	-4	12%

Later entries.
no.	molecule	Rango complex inh	miR-21 reporter
11	CCOC(=O)c1cc(S(=O)(=O)NC2CCN(C(=O)OCC)CC2)cn1C	6.1%	-5%
12	O=C(CCCCC(=O)Nc1ccc(F)cc1)Nc1ccc(F)cc1	0.1%	-2%
13	CC(C)(C)OC(=O)NCCOC(=O)c1[nH]cnc1C(=O)NCc1ccccc1	3.6%	nt
14	CCN(CCN(C)C)C(=O)Cn1ncc2c1-c1cc(C)ccc1OC2	-2.8%	0%
15	COc1ccc(CNCCC(c2ccccc2)c2ccc(OC(C)C)cc2)cc1OC (stereo unspecified)	-2.4%	?
16	Cn1c(=O)c(C(=O)Nc2ncccn2)c(O)c2ccccc21	-0.2%	-29%
17	COCCNC(=O)C(c1ccc(C)cc1)N(C(=O)CCC(=O)Nc1ccccn1)c1ccccc1C (stereo unspecified)	-0.6%	2%
18	COCCN(Cc1cc2cccc(C)c2n2nnnc12)C(=O)C(F)(F)F	0.9%	-1%
19	CCc1nnc(/N=C/c2c(O)n(-c3ccc(Cl)cn3)c(=O)c3ccccc23)s1	?	-3%
20	COC(=O)CCC(=O)OC1(C)C(=O)C=C2C=C(C3CC3)N(CC3CC3)C=C2C1=O (stereo unspecified)	?	2%

no.	GLA inh pH 4.5	Rango release inh
11	0	0%
12	nt	-15%
13	nt	-15%
14	3	4%
15	nt	-18%
16	2	27%
17	nt	-14%
18	-1	-15%
19	6	?
20	4&-9	?

Next structures
no.	molecule	Rango complex inh	miR-21 reporter
21	CC1(NS(=O)(=O)c2ccc(Cl)s2)CCS(=O)(=O)C1 (stereo unspecified)	10%	nt
22	COC(=O)CN1C(=O)[C@H]2[C@@H](c3ccc(C)o3)N3C(=O)CN(CCO)C(=O)[C@@]3(C)[C@H]2C1=O	-2.6%	-1%
23	CC(=O)N1c2ccccc2S(=O)(=O)c2ccccc21	-9.4%	nt
24	COc1ccc(-c2nc(CS(=O)CC(=O)NCCCN3CCCC3)c(C)o2)cc1OC (stereo unspecified)	-2.1%	-8%
25	COC(=O)[C@@H]1CCCN1Cc1c(C(=O)N2CCCCC2)nc2c(C)cccn12	-3.3%	-2%
26	CCCCn1c(N)c(N(CCOC)C(=O)C2CCN(C(=O)c3ccccc3C)CC2)c(=O)[nH]c1=O	-0.3%	nt
27	Cc1cc(NS(=O)(=O)c2ccc(NC(=O)c3ccccc3C)cc2)no1	0.6%	0%
28	CC(NCC(c1ccco1)N1CCCCC1)C(=O)NC1CCCC1 (stereo unspecified)	?	-5%
29	O=C(Cn1nc(C(F)(F)F)c2c1CCC2)N1CCN(c2ccccc2)CC1	-0.4%	-5%
30	CC1(C)CC(=O)C2=C(C1)c1c(ccc3ccccc13)NC2c1ccc(Br)o1 (stereo unspecified)	-2.4%	-1%

no.	GLA inh pH 4.5	Rango release inh
21	nt	18%
22	nt	-13%
23	nt	-14%
24	-1	6%
25	3	0%
26	nt	-8%
27	nt	-8%
28	-1	-6%
29	-12	-3%
30	13	-21%

Other records follow:
no.	molecule	Rango complex inh	miR-21 reporter
31	COCc1c(Br)c(C)nc(OCC(=O)N/N=C/c2ccc(C)o2)c1C#N	0.0%	0%
32	COCCNC(=O)COC(=O)c1[nH]c(C)c(C(C)=O)c1C	0.2%	0%
33	CN(C(=O)c1ccc2c(=O)n3c(nc2c1)CCCCC3)c1ccccc1Cl	3.5%	-1%
34	Clc1ccc(Nc2nc(-c3cccs3)cs2)nc1	0.4%	-10%
35	CCn1cc(C(=O)NCCCOC)c(=O)c2cc(S(=O)(=O)N(C)C3CCCCC3)ccc21	-0.4%	-16%
36	Cc1nc(SC(C)C)[nH]c(=O)c1Cc1ccccc1	-3.7%	-3%
37	CC(=O)NC(=S)Nc1cccc(S(=O)(=O)NC2=NCCC2)c1	3.0%	-6%
38	COc1ccc2nccc(/C=C/c3ccnc4ccc(OC)cc34)c2c1	?	-6%
39	CCc1ccc(OCC(=O)N/N=C(\C)c2ccc(O)cc2O)cc1	?	20%
40	Cc1nc(S(=O)(=O)Nc2ccc3c(c2)OCCO3)cn1C	-4.1%	-5%

no.	GLA inh pH 4.5	Rango release inh
31	9	-5%
32	-5	-1%
33	-7	15%
34	0	-2%
35	-6	-15%
36	7	-8%
37	-3	1%
38	11	?
39	-7	7%
40	-6	3%

More structures follow:
no.	molecule	Rango complex inh	miR-21 reporter
41	COc1cc(-c2nc3cnccn3c2Nc2ccc3c(c2)OCCO3)ccc1O	-1.4%	-11%
42	O=C(NCc1ccco1)/C(=C\C=C\c1ccccc1)NC(=O)c1ccco1	-0.2%	-3%
43	COc1ccc(-n2nc(C(=O)NCC(=O)NCCCN3CCOCC3)c3ccccc3c2=O)cc1OC	-1.3%	-4%
44	CNC(=O)C(=O)NCC1OCCCN1S(=O)(=O)c1cccs1 (stereo unspecified)	-3.4%	-2%
45	CN(C)CCNc1ccc(-c2n[nH]c(=O)c3ccccc23)cc1[N+](=O)[O-]	-0.2%	13%
46	COc1ccccc1N1CCN(C(=O)CCCC2=NS(=O)(=O)c3ccccc3N2)CC1	-4.0%	-9%
47	Cn1cccc1/C=N/NC(=O)CNc1ccc2ccccc2c1	1.5%	3%
48	Cc1ccc(-n2c(SCC(=O)N3CC(=O)Nc4ccccc43)nc3ccccc3c2=O)cc1	?	0%
49	O=C(CN1C(=O)c2ccccc2C1=O)Nc1sc2c(c1C(=O)NCC1CCCO1)CCC2 (stereo unspecified)	-0.1%	-8%
50	O=C(N/N=C\c1ccco1)Nc1cccc(Cl)c1	5.0%	-75%

no.	GLA inh pH 4.5	Rango release inh
41	-3	-9%
42	-4	-3%
43	nt	-2%
44	1	3%
45	nt	-6%
46	4	29%
47	-4	5%
48	-18	25%
49	1	-6%
50	11	-11%

An excerpt of these results, with values under each structure.
Value order – Rango complex inh | miR-21 reporter | GLA inh pH 4.5 | Rango release inh
[49] O=C(CN1C(=O)c2ccccc2C1=O)Nc1sc2c(c1C(=O)NCC1CCCO1)CCC2 (stereo unspecified)
    -0.1% | -8% | 1 | -6%
[41] COc1cc(-c2nc3cnccn3c2Nc2ccc3c(c2)OCCO3)ccc1O
    -1.4% | -11% | -3 | -9%

Carrying on.
no.	molecule	Rango complex inh	miR-21 reporter
51	OCCN(CC(O)Cn1ccc2ccccc21)CC(O)Cn1ccc2ccccc21 (stereo unspecified)	-4.3%	2%
52	COc1ccc(CCNC(=O)c2ccc(Cl)cc2Cl)cc1OC	0.5%	-8%
53	CC(C)(C)C(=O)O/N=C(\N)Cc1ccc(-c2csnn2)cc1	-0.1%	0%
54	COc1ccccc1-c1nc(-c2cccc(C)c2)no1	0.4%	-46%
55	Cc1cccc(C)c1NC(=O)CSc1nc2[nH]c(=O)cc(O)c2s1	?	nt
56	N#Cc1c(C(F)(F)F)cc(-c2ccco2)nc1SCc1ccncc1	?	-1%
57	Cc1ccc(/C(O)=C2\C(=O)C(=O)N(CC(C)O)C2c2cccc(F)c2)cc1 (stereo unspecified)	-1.7%	4%
58	Cc1cc2n(n1)C(c1ccco1)Nc1ccccc1-2 (stereo unspecified)	0.5%	-13%
59	O=C(Nc1ccc(F)cc1)NC1(C(=O)NCc2ccc3c(c2)OCO3)CCCCC1	0.3%	-3%
60	CC(C)(C)c1csc(NC(=O)c2ccccc2O)n1	2.0%	21%

no.	GLA inh pH 4.5	Rango release inh
51	-4	-13%
52	8	13%
53	-5	15%
54	-3	-14%
55	nt	10%
56	7	?
57	-1	-16%
58	-1	0%
59	5	30%
60	nt	-13%

(cont.)
no.	molecule	Rango complex inh	miR-21 reporter
61	CCCCn1nnc(N(C(=O)c2cccs2)C(=O)c2cccs2)n1	-1.4%	-24%
62	COC(=O)c1ccc(NC(=O)Nc2ccc3c(c2)OCO3)cc1	-2.9%	-38%
63	CC(C)C[C@H]1CN([C@@H](Cc2ccc(O)cc2)CN2CCC[C@@H]2CN2C(=O)C(=O)NC[C@@H]2Cc2ccccc2)C(=O)C(=O)N1CC1CCCCC1	0.2%	nt
64	CCN1CCN(c2ccc(S(=O)(=O)N3CCCCC3)cc2NC(=O)c2cccc(Cl)c2)CC1	3.2%	nt
65	Cc1ncc2c(n1)-c1cc(F)ccc1SC2	0.3%	-7%
66	CC(C)(C)NCC(O)COCc1ccc(Cl)cc1 (stereo unspecified)	-0.3%	0%
67	OC(C#CCCN1CCCCC1)(c1ccccc1)C1CCCCC1 (stereo unspecified)	-0.3%	-2%
68	O=C(Nc1nccs1)c1ccc(COc2ccccc2Cl)o1	-1.2%	1%

no.	GLA inh pH 4.5	Rango release inh
61	-1	-1%
62	nt	-5%
63	nt	-1%
64	nt	-9%
65	nt	2%
66	-3	-13%
67	-8	3%
68	6	-4%

By substructure, the compounds so far containing a furan ring, fused or not.
no.	molecule	Rango complex inh	miR-21 reporter
6	CC(C)(C)NC(=O)/C(=C/c1ccco1)c1ccccc1	-3.0%	-5%
22	COC(=O)CN1C(=O)[C@H]2[C@@H](c3ccc(C)o3)N3C(=O)CN(CCO)C(=O)[C@@]3(C)[C@H]2C1=O	-2.6%	-1%
28	CC(NCC(c1ccco1)N1CCCCC1)C(=O)NC1CCCC1 (stereo unspecified)	?	-5%
30	CC1(C)CC(=O)C2=C(C1)c1c(ccc3ccccc13)NC2c1ccc(Br)o1 (stereo unspecified)	-2.4%	-1%
31	COCc1c(Br)c(C)nc(OCC(=O)N/N=C/c2ccc(C)o2)c1C#N	0.0%	0%
42	O=C(NCc1ccco1)/C(=C\C=C\c1ccccc1)NC(=O)c1ccco1	-0.2%	-3%
50	O=C(N/N=C\c1ccco1)Nc1cccc(Cl)c1	5.0%	-75%
56	N#Cc1c(C(F)(F)F)cc(-c2ccco2)nc1SCc1ccncc1	?	-1%
58	Cc1cc2n(n1)C(c1ccco1)Nc1ccccc1-2 (stereo unspecified)	0.5%	-13%
68	O=C(Nc1nccs1)c1ccc(COc2ccccc2Cl)o1	-1.2%	1%

no.	GLA inh pH 4.5	Rango release inh
6	13	15%
22	nt	-13%
28	-1	-6%
30	13	-21%
31	9	-5%
42	-4	-3%
50	11	-11%
56	7	?
58	-1	0%
68	6	-4%

The list is partial. The share of hits here may be higher or lower than overall.
